High-throughput results (PubChem)
D2 ag: Beta-Arrestin HTS for Positive Allosteric Modulators of the Human D2 Dopamine Receptor: Agonists. D(2) dopamine receptor (Homo sapiens), P14416. activation, % (no concentration beside the values). DiscoveRx PathHunter D2 beta-arrestin, luminescence, 90 min; 100% = 57 uM dopamine signal. hit rate 0.084% among 360,000; in the data active = activation above about 40%; inconclusive = about 15% to 40%; inactive = below about 15%; further: compound concentration not given in the record; the text of the record calls up to 30% inactive
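DiscoveRx PathHunter D2 beta-arrestin cells (2,100/well) attached overnight, then compound-stimulated 90 min at 37 C in HBSS/10 mM HEPES/0.1% Tween-20 buffer; beta-galactosidase complementation read by luminescence after 1 h at ambient temperature. Dopamine 57 uM final (EC100) as control.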
CtBP-E1A blk: qHTS Assay for Inhibitors of the CtBP/E1A Interaction | CtBP / adenovirus E1A interaction (AlphaScreen) | AlphaScreen GST-E1A/His-CtBP binding, 1536-well; active compounds read low; control for the full effect not named in the record | activity change, % (no concentration beside the values) | hit rate 0.49% among 340,000 | AID 651724, 2012; in the data active means activity change below about -65%; inconclusive means about -30% to -65%; inactive means above about -30%; further: on the % scale 0 is the no-effect control and ±100 the full control effect
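In 5 uL wells, 23 nL compound meets equimolar GST-E1A and His-CtBP (5X stock 125 nM each) for 2 h, 37 °C. Beads (5X, 50 ug/mL) then 1 h, 37 °C, dark.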
gsp ag: qHTS for Agonist of gsp, the Etiologic Mutation Responsible for Fibrous Dysplasia/McCune-Albright Syndrome: qHTS | gsp mutant cells, cAMP HTRF, 30 min; control for the full effect not named in the record | Potency, µM (titrated, usually from 76.9 µM), without a hit: top-dose activation (cAMP increase), hits mostly activators | hit rate 0.13% among 340,000; active = well fitted activation curve with a large enough effect; inconclusive = small, poorly fitted or top-dose-only effect, or another doubt; inactive = no such curve, though single readings can be large or run the other way; cell line not stated here;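 further: phosphodiesterase inhibitor Ro 20-1724 added with compounds to block cAMP breakdown; potency means the concentration at half of the fitted maximal effect; nearly all actives have a fitted effect of over 60% in size; about a fifth of the inactives were tested at one dose only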
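Cells stably selected in G418 were plated at 2000/well, grown 16-24 hr, then given compounds in DMSO with the PDE inhibitor […] (300 uM solution added) for 30 min at 37C; cAMP was read by HTRF.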
D2 PAM: Beta-Arrestin HTS for Positive Allosteric Modulators of the Human D2 Dopamine Receptor: Potentiators; D(2) dopamine receptor (Homo sapiens), P14416; DiscoveRx D2 beta-arrestin cells, luminescence, 90 min; 100% = 57 uM dopamine signal; potentiation, % (no concentration beside the values); hit rate 0.23% among 360,000; AID 624464, 2012; active = potentiation of 50% or more; inconclusive = 30% to 50%; inactive = 30% or less;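 further: compound concentration not given in the record; tested on top of an EC20 dose of dopamine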
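PathHunter D2 cells, attached overnight at 37 deg C, received compound in DMSO plus dopamine at EC20 (50 nM final) for 90 min at 37 deg C. Beta-arrestin recruitment was read as luminescence after 1 h with detection reagent at ambient temperature.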
Six1-Eya2 inh: qHTS Assay for Inhibitors of the Six1/Eya2 Interaction. activity change, % (no concentration beside the values). Homeobox protein SIX1 (Homo sapiens) + Protein phosphatase EYA2 (Homo sapiens), …. AlphaScreen GST-Six1/His-Eya2 binding, biochemical; active compounds read low; control for the full effect not named in the record. hit rate 0.56% among 360,000; in the data active = activity change below about -65%; inconclusive = about -30% to -65%; inactive = above about -30%; further: on the % scale 0 is the no-effect control and ±100 the full control effect
Target sequence (O00167 whole entry, looked up): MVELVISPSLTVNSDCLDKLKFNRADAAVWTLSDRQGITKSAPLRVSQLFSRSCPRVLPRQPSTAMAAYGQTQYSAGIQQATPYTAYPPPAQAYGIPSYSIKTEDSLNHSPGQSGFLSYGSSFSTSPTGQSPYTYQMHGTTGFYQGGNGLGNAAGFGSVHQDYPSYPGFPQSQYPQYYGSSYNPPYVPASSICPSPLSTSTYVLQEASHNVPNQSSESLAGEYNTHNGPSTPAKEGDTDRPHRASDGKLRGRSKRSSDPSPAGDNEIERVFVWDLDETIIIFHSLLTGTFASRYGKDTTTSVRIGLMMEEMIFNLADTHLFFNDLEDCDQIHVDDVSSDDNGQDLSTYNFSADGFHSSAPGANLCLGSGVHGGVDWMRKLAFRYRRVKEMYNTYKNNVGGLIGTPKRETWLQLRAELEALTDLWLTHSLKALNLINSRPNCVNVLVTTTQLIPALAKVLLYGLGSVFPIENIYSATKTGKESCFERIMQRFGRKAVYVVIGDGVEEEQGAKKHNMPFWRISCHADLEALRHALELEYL
Target sequence (Q15475 whole entry, looked up): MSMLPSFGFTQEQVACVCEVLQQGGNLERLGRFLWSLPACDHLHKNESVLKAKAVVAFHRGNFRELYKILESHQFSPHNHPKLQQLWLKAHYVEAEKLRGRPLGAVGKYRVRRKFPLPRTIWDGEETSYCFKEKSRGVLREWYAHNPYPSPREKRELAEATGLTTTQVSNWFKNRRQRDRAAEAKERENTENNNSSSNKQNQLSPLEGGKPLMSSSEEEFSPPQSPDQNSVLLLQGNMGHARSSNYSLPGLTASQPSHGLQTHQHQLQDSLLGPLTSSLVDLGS
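Homogeneous AlphaScreen proximity assay pairing GST-Six1 with His-tagged Eya2 (added as 5X mix: 250 nM and 500 nM) in 50 mM Tris pH 8.0, 300 mM NaCl, 1 mM TCEP. Glutathione donor and nickel acceptor beads; 1 h, 37 °C, dark.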
gsp antag: qHTS for Antagonists of gsp, the Etiologic Mutation Responsible for Fibrous Dysplasia/McCune-Albright Syndrome: qHTS. gsp-mutant cells, cAMP HTRF, 30 min; control for the full effect not named in the record. Potency, µM (titrated, usually from 76.9 µM), for the others: top-dose activity change, negative = inhibition, usual class: inhibitors. hit rate 0.4% among 340,000; active = falling curve of any shape with a large fitted effect; inconclusive = falling curve, mostly with a smaller effect; inactive = flat or rising curve; cell line not stated here;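 further: intracellular cAMP measured with PDE inhibitor Ro 20-1724 present during compound exposure; potency means the concentration at half of the fitted maximal effect; on the % scale 0 is the no-effect control and ±100 the full control effect; nearly all actives have a fitted effect of over 65% in size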
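HTRF cAMP read-out (cAMP-d2 plus anti-cAMP antibody-K in lysis buffer, 30 min RT). Before lysis, cells are exposed to compounds with […] for 30 min at 37C in DPBS containing Ca/Mg, BSA and Tween 20.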
* = called active by the depositor; ? = inconclusive; / = not tested or not shown; [ ] = dose if it differs, or a comment.

D2 ag | CtBP-E1A blk | gsp ag | D2 PAM | Six1-Eya2 inh | gsp antag | Structure
0.9 | -2 | 16% | -5 | 9 | 3% | COc1ccc(CNC(=O)CSc2ccc(Br)cc2)cc1OC
-2.4 | 1 | / | 0 | -9 | 0% | CCC(c1ccc(O)cc1)C(CC)c1ccc(O)cc1 (stereo not given)
-2.3 | 1 | 3% | -5 | 4 | -4% | CC(Oc1cccc(F)c1)C(=O)/C=C\N(C)C (stereo not given)
-4.2 | -4 | 2% | -8 | -4 | 4% | S=c1[nH]ncn1-c1ccccn1
-3.1 | -1 | -39%[inhibitor] | -16 | 3 | 7% | CC(=O)NC(Cc1ccccc1)C(=O)OCC(=O)c1ccc(Cl)cc1 (stereo not given)
-1.8 | -3 | 1% | -2 | 3 | -6% | C=CCn1c(=O)c2ccccc2n2c(SCC(=O)N3CCCc4ccccc43)nnc12
-4.0 | -2 | 22%[15.4 µM] | -11 | -5 | 5% | CCN(CC(=O)NC(C)C)C(=O)[C@H](C)NC(=O)c1ccc(Br)cc1
1.0 | 12 | ? | -17 | 8 | -8% | COC(=O)c1cc2c(C)nn(-c3ccccc3)c2s1
0.9 | 3 | -1% | 0 | -3 | -1% | Cc1ccc(C(=O)N2CCc3ccccc3C2)cc1S(=O)(=O)N1CCOCC1
0.2 | -1 | 0% | 0 | 6 | 0% | O=C(COC(=O)/C=C/c1cccc(F)c1)NC1CCCCCC1
2.4 | -16 | / | 1 | ? | -5% | O=C(CNC(=O)c1[nH]cnc1C(=O)N[C@@H](Cc1ccccc1)C(=O)OCc1ccccc1)OCc1ccccc1
0.1 | -3 | 6%[15.4 µM] | -2 | 3 | -1% | CCCCC(C(=O)NC1CCCC1)N(Cc1ccccc1)C(=O)c1snc(C(N)=O)c1N (stereo not given)
-3.9 | / | -5% | -18 | -4 | -12% | Cc1ccc([N+](=O)[O-])c(OCCCN2CCCCCC2)c1
8.5 | / | -2%[15.4 µM] | -4 | 0 | -14% | O=c1c2cc(Cl)ccc2nc(-c2ccccc2Cl)n1O
-3.1 | 15 | -14%[15.4 µM] | -3 | 18 | 0% | CSCCC(NS(=O)(=O)c1ccccc1F)C(=O)NCC(c1ccc(F)cc1)N1CCOCC1 (stereo not given)
-2.1 | 10 | 14% | 2 | 1 | 4% | O=C(COC(=O)c1cc([N+](=O)[O-])ccc1NCc1ccccc1)NCc1ccccc1Cl
-3.6 | 0 | 9%[15.4 µM] | -10 | -6 | -20% | Cc1ccccc1OCC(=O)NCCCNC(=O)c1ccco1
-3.3 | -1 | / | 4 | -2 | / | CCc1ccc([C@H]2[C@@H]3C(=O)C[C@@H]4C(=O)N(c5ccccc5)C(=O)[C@@H]4[C@@H]3CN2S(=O)(=O)c2ccc(C)cc2)cc1
-6.3 | 5 | 2% | -8 | 0 | 2% | CCCCNC(=O)Nc1ccon1
5.5 | -23 | 5% | 22 | -18 | -27% | COc1ccccc1N1C(=O)N(C(C)=O)C2C1Nc1ccccc1N2C (stereo not given)
-2.0 | 13 | -43%[inhibitor] | 9 | 24 | 8% | Cc1cc(Cl)c(S(=O)(=O)N2CCCCCC2)cc1OCC(=O)NC1CCCCC1
-3.0 | 8 | 0% | -7 | 5 | 10% | CCOCCSc1nc2c(c(=O)[nH]c(=O)n2C)n1CCCc1ccccc1
-2.9 | 2 | 4% | 0 | -1 | -19% | CCS(=O)(=O)c1ccc(C(=O)Nc2ccccc2)c(Cl)c1Cl
-5.8 | 10 | -26% | -3 | -2 | -10% | CCOC(=O)c1c(C)[nH]c(C(=O)OC(C)C(=O)Nc2ccccc2OC)c1C (stereo not given)
4.3 | 7 | 14% | -7 | 6 | 4% | CSc1ccccc1NC(=O)c1cc(-c2cccs2)on1
-1.9 | -2 | 1% | -4 | 10 | 4% | O=C(Nc1ccccc1Cl)NC1(C(=O)N2CCOCC2)CCCCC1
-1.7 | 9 | 0% | -14 | 8 | 4% | COn1c(=O)c(=O)n(OC)c2ccccc21
-2.8 | 7 | 21% | 3 | -2 | -1% | COC(=O)NC1CSCC1OC(=O)CN1C(=O)c2ccccc2C1=O (stereo not given)
-5.7 | 26 | -17% | -10 | 19 | -41% | Cc1ccoc1C(=O)Nc1ccc2ccccc2c1
-4.4 | -2 | ? | -2 | 2 | 4% | COc1ccccc1Oc1coc2c(CN(C)C)c(O)ccc2c1=O
-2.5 | 8 | -11% | -1 | 3 | -1% | CC(OC(=O)CCCNC(=O)c1ccc(Cl)cc1)C(=O)N(C)Cc1ccccc1 (stereo not given)
-5.4 | 0 | 2% | -16 | -19 | -3% | CC(C)c1ccc(NC(=S)NN(c2ccccc2)c2ccccc2)cc1
-2.2 | -2 | 5% | -6 | 5 | 18% | COC(=O)c1ccc(CNC(=O)CCNC(=O)c2ccco2)cc1
-2.5 | 6 | -36%[inhibitor] | -11 | -2 | -3% | Cc1cc(OCC(=O)C(C)(C)C)c2c(C)c(C)c(=O)oc2c1
-0.9 | -6 | 0% | -1 | -9 | -20% | COc1ccc(-n2c(O)c(/C=N/NS(=O)(=O)c3cccc([N+](=O)[O-])c3)c3ccccc3c2=O)cc1OC
-0.6 | 6 | / | / | 1 | -1% | COc1cc(OC)c2c(-c3cccc(-c4ccc(OC(F)(F)F)cc4)c3)cc(=O)oc2c1
4.5 | 2 | 13%[15.4 µM] | 8 | 3 | -5% | CC(C)Oc1ccc(/C=C(/NC(=O)c2ccccc2)C(=O)NC(Cc2ccccc2)C(=O)O)cc1 (stereo not given)
0.5 | 0 | 0% | 14 | 5 | -6% | COc1cc(S(=O)(=O)Nc2ccccn2)ccc1F
1.0 | / | -15% | -4 | 6 | -10% | COc1cc(/C=C/C(=O)OCC(=O)N2CC(=O)Nc3ccccc32)ccc1O
1.3 | 4 | 2% | -1 | 1 | 1% | COCCCNC(=O)c1ccc2c(=O)n(Cc3ccc4c(c3)OCO4)c(=S)[nH]c2c1
-3.5 | -3 | 27% | -5 | -3 | 0% | COCCN1Cc2cccc(C(=O)NCc3ccccn3)c2C1=O
-1.3 | 6 | -6%[15.4 µM] | -15 | -11 | 1% | COc1ccccc1C(=O)OCc1cc(=O)n2ccsc2n1
0.2 | 2 | 2% | -8 | -2 | 5% | CCOC(=O)N1CCN(Cc2nc3c(c(=O)n(C)c(=O)n3C)n2Cc2cccc(C)c2)CC1
-1.3 | 3 | 9% | 10 | -1 | 3% | CC1(C)CC(=O)c2cnc(NC(=O)CSc3nc4ccccc4o3)nc2C1
-2.8 | 4 | 13% | -6 | 3 | 1% | Cc1ccc(CCNC(=O)C2CCCN(S(=O)(=O)c3c(C)nn(C)c3C)C2)cc1 (stereo not given)
-3.8 | 2 | -55%[inhibitor] | -2 | 14 | / | CCN1C(=O)[C@H]2[C@@H](c3ccc(OC)cc3)N[C@]3(CCCN(CCC(C)C)C3=O)[C@H]2C1=O
-2.3 | 3 | -9% | -1 | 31 | 9% | CSc1nc(Oc2ccc(F)cc2F)cc(C(F)(F)F)n1
0.8 | 0 | 16%[15.4 µM] | -7 | 0 | -6% | COc1ccc(N(CC(=O)NCc2ccc(F)cc2)C(=O)c2snc(C(N)=O)c2N)cc1OC
0.4 | -7 | -19%[15.4 µM] | -5 | 11 | 3% | COc1cccc(-n2c(SCC(N)=O)nnc2-c2ccco2)c1
-4.6 | 3 | 7% | -16 | -22 | -10% | Cc1cc(NC(=O)CSc2nnc(-c3ccco3)n2Cc2ccccc2)no1
-3.4 | 10 | 12% | -5 | 1 | -18% | O=C(Nc1ccc2c(c1)CCC2)c1ncoc1-c1ccccc1F
-0.3 | 6 | -40% | 3 | 6 | / | O=S(=O)(NC1CCCC1)c1ccc(F)cc1F
-3.1 | -3 | -14% | -10 | 0 | -1% | COc1ccc(NC(=O)c2cc(-c3ccccc3)nc3c2c(C)nn3-c2ccccc2)c(OC)c1
-0.4 | -6 | ? | -6 | -5 | -10% | CCn1c(SCc2c(Cl)cccc2Cl)nc2nc3c(cc2c1=O)CCCC3
-2.2 | 3 | 2%[15.4 µM] | -3 | 0 | 6% | COc1ccc(C(=O)N2CCOC2CNC(=O)C(=O)NCc2ccco2)cc1 (stereo not given)
1.7 | 0 | 27% | -5 | 1 | -3% | C/C(=N\NC(=O)c1ccoc1C)c1ccc(Br)s1

(cont.)
D2 ag | CtBP-E1A blk | gsp ag | D2 PAM | Six1-Eya2 inh | gsp antag | Structure
0.3 | -1 | -31%[inhibitor] | -4 | -5 | -9% | O=C(NC1CCCCC1)C(c1cccs1)N(Cc1cccs1)C(=O)c1ccco1 (stereo not given)
-1.7 | 11 | -24% | -2 | 2 | 5% | Cc1cc(C(=O)NCc2cccs2)n(-c2ccccc2)n1
-4.5 | -3 | ? | -11 | 4 | 16% | O=C(CCN1C(=O)C2CC=CCC2C1=O)Nc1ccccc1Cl (stereo not given)
-2.0 | 0 | -10% | 3 | 4 | -5% | CC(C)[C@H](N)c1nnc2n1N=C(c1ccc(Cl)cc1)CS2
0.3 | -3 | / | -2 | 6 | 8% | CCN1C(=O)[C@H]2[C@H]3CN=C(SCc4ccc(Cl)cc4)N3[C@@](C)(C(=O)OC)[C@H]2C1=O
-3.4 | -6 | -81%[inhibitor] | -7 | 0 | 2% | Cc1oc(-c2cccc(F)c2)nc1CN1CCCCC1CCn1cccn1 (stereo not given)
-2.9 | -29 | -45%[inhibitor] | -20 | -17 | 6% | CCOC(=O)c1c(OCC)[nH]c2ccc(O)cc12
-0.4 | -1 | 7% | -8 | 4 | -1% | Cc1ccc(-c2nn(C)c(=O)c3ccccc23)cc1S(=O)(=O)NCCO
